Arbovirus anti: antivirals against arbovirus infection, primary screen, cell-based, full library, 10K replicate subset | AID 1251, 2008 | arbovirus infection cell-based antiviral screen | inhibition, % at 10 µM | 200,000 compounds, 0.37% hits;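 active = inhibition from about 30%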;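 note: bluetongue infection of BSR cells; cell survival read as ATP light after 72 h; 0% = infected wells without compound and 100% = uninfected wells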
Mtb H37Rv: M. tuberculosis H37Rv growth inhibitors, H37Rv strain (AID 1626); M. tuberculosis H37Rv growth inhibition; higher % means a stronger effect; inhibition, % at 10 µM, or IC50 in µM where a hit was titrated; 220,000 compounds, 0.95% hits;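 active = confirmed in a dose series; inconclusive = inhibition above 80% but not taken into the dose series; inactive = below 80% or under 30% at every dose of the series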;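 note: bacteria incubated seven days before Alamar blue readout; 0% = bacteria only wells and 100% = bacteria with antibiotic wells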
YopH inh: YopH tyrosine phosphatase inhibitors, primary screen, biochemical, fluorescence Ex485/Em525. YopH tyrosine phosphatase [Yersinia enterocolitica]. inhibition, %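 (about 10 µM by stock and volumes)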. 140,000 compounds, 0.16% hits. AID 898, 2007;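 active = inhibition of 50% or more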;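 note: controls were vehicle for no effect and minimum signal wells for full effect; inactives centre near -20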
RecA intein inh: Mtb RecA intein splicing inhibitors, primary screen, biochemical, fluorescence, HTS; cell-free RecA intein splicing; inhibition, %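 (about 9 µM by stock and volumes)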; 290,000 compounds, 0.75% hits; in the data active = inhibition above about 30%; inconclusive = no clear call, values can overlap the other calls;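 note: 0% = vehicle wells and 100% = reference inhibitor control wells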
Target sequence (P9WHJ3 whole entry, looked up): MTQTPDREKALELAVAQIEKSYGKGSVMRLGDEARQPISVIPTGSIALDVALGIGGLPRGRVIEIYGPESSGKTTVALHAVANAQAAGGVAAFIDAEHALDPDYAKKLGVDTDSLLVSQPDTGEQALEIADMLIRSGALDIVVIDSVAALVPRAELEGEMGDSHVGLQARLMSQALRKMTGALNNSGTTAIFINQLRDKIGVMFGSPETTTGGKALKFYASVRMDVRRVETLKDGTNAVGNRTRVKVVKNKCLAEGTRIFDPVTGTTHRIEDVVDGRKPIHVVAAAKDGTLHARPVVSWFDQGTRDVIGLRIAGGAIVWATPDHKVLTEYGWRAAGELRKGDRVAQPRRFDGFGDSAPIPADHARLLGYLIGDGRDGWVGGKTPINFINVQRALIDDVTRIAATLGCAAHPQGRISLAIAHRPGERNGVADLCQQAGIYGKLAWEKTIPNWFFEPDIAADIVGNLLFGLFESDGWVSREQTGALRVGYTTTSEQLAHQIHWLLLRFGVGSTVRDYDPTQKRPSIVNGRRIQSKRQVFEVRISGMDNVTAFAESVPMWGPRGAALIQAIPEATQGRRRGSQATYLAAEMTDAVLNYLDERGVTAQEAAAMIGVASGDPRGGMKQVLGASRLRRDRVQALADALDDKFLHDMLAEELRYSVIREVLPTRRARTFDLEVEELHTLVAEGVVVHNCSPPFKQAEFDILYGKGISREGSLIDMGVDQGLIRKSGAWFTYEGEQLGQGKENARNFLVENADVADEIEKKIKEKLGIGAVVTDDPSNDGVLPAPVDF
Mtb bLac sens: beta-lactam sensitization of Mtb H37Rv, H37Rv; M. tuberculosis H37Rv growth with meropenem, percent inhibition; hits of this screen are not shown here; inhibition, % at 25 µM; 330,000 compounds, 0.27% hits; AID 434955, 2010;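 active = about 74% or more and at least 40 points above the plate without the antibiotic, then above 30% in a dose series; inconclusive = first-round hits that could not be retested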;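 note: growth measured after seven days incubation then overnight dye step; 0% = bacteria only wells and 100% = bacteria with antibiotic; twin plates without the antibiotic show which effects depend on it; some results filed as inactive read as strong as hits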
Arbovirus anti repeat: also measured in Arbovirus anti; calls as there; inhibition, %; measured here: 10K subset replicate screen; many hits read low in the repeat;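 first of two repeat runs on a subset; 0% = infected and 100% = uninfected wells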
Active calls of the source: *; ? = inconclusive; / = not tested or not shown. These rows are one share of the data; rates above refer to the full screens.

Preview:
SMILES | Arbovirus anti | Mtb H37Rv | YopH inh | RecA intein inh | Mtb bLac sens | others
CCOC(=O)C1CCCN(S(=O)(=O)c2cc3c(cc2Cl)NC(=O)CO3)C1 (centres undefined) | / | / | / | 2.2 | -15
O=C(OCC(=O)N1CCN(C(=O)c2ccco2)CC1)c1ccccc1NCCO | / | / | / | -13 | -12

The whole of this part, from the start:
SMILES | Arbovirus anti | Mtb H37Rv | YopH inh | RecA intein inh | Mtb bLac sens | others
CCOC(=O)C1CCCN(S(=O)(=O)c2cc3c(cc2Cl)NC(=O)CO3)C1 (centres undefined) | / | / | / | 2.2 | -15
O=C(OCC(=O)N1CCN(C(=O)c2ccco2)CC1)c1ccccc1NCCO | / | / | / | -13 | -12
CCN(CC)CCN1C(=O)c2ccccc2NC1c1cc(OC)c(OC)c(OC)c1 (centres undefined) | 6 | -6% | -45 | -12 | 0
C=CCNc1nc(C(=O)OCC(=O)c2ccc(F)cc2)cs1 | / | / | / | -0.5 | -10
CC(C)c1ccc(NC(=O)C2CCCCC2C(=O)O)cc1 (centres undefined) | 13 | / | -23 | 3.6 | 87
CC(C)(CO)NCc1ccccc1OCC(=O)Nc1ccccc1 | -2 | 6% | 33 | -1.4 | 1
CCc1ccc(NC(=S)NCc2cccnc2)cc1 | / | -3% | / | 0.8 | 2
Cc1ccc(S(=O)(=O)N2CCOCC2)cc1NC(=O)COC(=O)c1cc(=O)c2ccccc2o1 | 14 | 14% | -15 | 2.6 | 3
CCN(CC)CCN1C(=O)C(=O)/C(=C(/O)c2ccccc2)C1c1ccccc1F (centres undefined) | 2 | -2% | -14 | 0.6 | -14
Cc1c(C(=O)N2CCC(Cc3ccccc3)CC2)sc2ncnc(N3CCC(C)CC3)c12 | -19 | 2% | / | -2.0 | 98
CCn1ccnc1CNC(=O)c1ccc2oc(CCCc3ccccc3)nc2c1 | / | / | / | 2.2 | 31
O=C(CCSCCc1ccccn1)Nc1cccc([N+](=O)[O-])c1 | -3 | -4% | / | 1.0 | 4
CN(C)CCNc1ncnc2ccccc12 | 0 | -5% | -1 | -1.2 | 0
Cc1cc(C)cc(NC(=S)N2CCN(c3ncc(C(F)(F)F)cc3Cl)CC2)c1 | / | 2% | / | 1.0 | -8
O=C(COC(=O)CNS(=O)(=O)c1ccccc1)Nc1ccc(Cl)cn1 | -1 | 2% | -23 | 2.8 | -7
CC(C(=O)NCc1ccc(Cl)cc1)n1cccc1C(=O)c1ccccc1 (centres undefined) | / | / | / | -1.9 | 11
Cc1ccc(/C=N/Nc2nc(C(C)(C)C)cs2)o1 | 4 | 0% | -33 | 2.8 | 7
Cc1ccc(NC(=O)C2CC(=O)N(Cc3ccccc3)C2)nc1 (centres undefined) | / | / | / | 0.8 | -1
CCCCn1nnnc1NCc1cccs1 | -9 | 6% | -15 | 0.0 | 7
O=C1CC(c2ccc(S(=O)(=O)NCc3ccccc3)cc2)CN1 (centres undefined) | 10 | 14% | -47 | -0.4 | 0 | Arbovirus anti repeat=8
CCOC(=O)C1CCCCN1Cc1ccc(F)cc1 (centres undefined) | 0 | -2% | -2 | -0.3 | 1
O=C(CN1C(=O)CSc2ccc(S(=O)(=O)N3CCOCC3)cc21)N1CCCCC1 | / | / | / | 0.7 | -4
Cc1ncccc1C(=O)N1CCCC(CCC(=O)N2CCN(c3ccccn3)CC2)C1 (centres undefined) | / | / | / | -5.5 | -1
CC(OC(=O)C1CCN(S(=O)(=O)c2ccc(C(C)(C)C)cc2)CC1)C(=O)N1CCOCC1 (centres undefined) | / | / | / | 0.3 | -2
CC1=NN(C(=S)Nc2ccccc2)C(C)(C)C1 | -8 | -15% | / | / | 1
Cc1onc(-c2c(F)cccc2Cl)c1-c1nnc(-c2cccc3ccccc23)o1 | / | / | / | -2.1 | -1
CC12CN(C(=O)c3ccc(Cl)cc3)C3(C#N)CC1CCC23C (centres undefined) | 0 | -6% | 1 | 1.9 | 6
CCOC(=O)Cn1c(CN2CCOCC2)nc2c1c(=O)n(C)c(=O)n2C | 6 | 0% | -36 | -2.8 | -2 | Arbovirus anti repeat=4
O=C(Nc1ccc(S(=O)(=O)Nc2nccs2)cc1)c1cccc(S(=O)(=O)N2CCOCC2)c1 | / | / | / | -1.1 | -3
CC(=O)N1CCc2cc3nc(C)cc(C)c3cc21 | -4 | / | -41 | -4.1 | 29
CCOC(=O)C1CCN(C(=O)CSc2ccc(Cl)cc2)CC1 | -3 | 2% | 33 | 0.6 | -6
S=C(NCCc1ccc(Cl)cc1)NC1CCCC1 | 10 | -2% | / | / | -2
CN1C(=O)/C(=C\c2ccc(N3CCCCCC3)cc2)C(=O)NC1=S | / | -11% | / | -5.7 | -2
C=CCn1c(SCC(=O)/C(C#N)=C(\C)N)nc2sc(CC)cc2c1=O | -6 | / | -43 | / | 4
COc1nc(-c2ccccc2)ccc1-c1noc(COc2ccccc2)n1 | -9 | 8% | -27 | 6.3 | 52
Cc1ccc(CNC(=O)C2CCC(=O)N(C3CCCC3)C2)c(F)c1F (centres undefined) | / | / | / | 0.3 | -1
O=C(CCn1nnc(-c2cccs2)n1)NCc1ccccc1Cl | 4 | 2% | -7 | 2.9 | 7
COc1cc(C(=O)N(C)CCOc2ccc(C)cc2)ccc1OC1CCN(C(C)=O)CC1 | / | / | / | 0.3 | -8
CC(=O)c1c(C)oc2ccc(O)c(CN3CCOCC3)c12 | 6 | -1% | 17 | -2.6 | -12
COc1ccccc1N=Nc1c(O)[nH]c(=S)[nH]c1=O | -18 | 7% | / | 18 | 86
O=C(Nc1ncccn1)c1ccc([N+](=O)[O-])cc1Cl | / | / | / | 0.1 | 1
CC(C)OCC(O)CS(=O)(=O)Cc1ccccc1 (centres undefined) | 5 | 4% | -19 | 2.8 | -1
CCN1CCN(c2ccc(S(=O)(=O)N3CCCCC3)cc2NC(=O)C(C)Oc2ccc(F)cc2)CC1 (centres undefined) | / | / | / | 2.2 | -9
CCN=C1SC(C(=O)Nc2cccc(Cl)c2)CC(=O)N1CC (centres undefined) | -7 | 2% | / | 4.7 | -5
O=C(COC(=O)c1c2c(nc3ccccc13)CCCCC2)NCc1ccc2c(c1)OCO2 | 5 | 6% | -14 | 15 | 11
C=CCn1c(SCc2nc3ccccc3[nH]2)nnc1-c1ccc(OC)cc1 | 8 | -3% | -51 | 0.1 | -10
CCOC(=O)N1CCN(C(=O)CN(C2CCCCC2)S(C)(=O)=O)CC1 | 7 | -7% | -13 | -2.6 | -2
O=C(c1ccc(NS(=O)(=O)c2cccc(F)c2)cc1)N1CCCCC1 | / | / | / | -0.5 | -1
COc1ccc(-c2nc(SCC(=O)Nc3cc(C)on3)n[nH]2)cc1 | 13 | 11% | 1 | -0.7 | 4
O=C(CCl)c1ccc(Cc2ncc(C(F)(F)F)cc2Cl)s1 | -5 | 2% | -1 | 79* | 93
COc1cc(C(C)=O)ccc1OC(=O)CN1C(=O)c2ccccc2C1=O | / | / | / | 3.3 | 3
C/C(=N\NC(=O)COc1ccc(C)cc1[N+](=O)[O-])c1ccc2c(c1)OCCO2 | / | / | / | 1.1 | -2
CCCn1c(NCc2ccccc2NS(=O)(=O)c2ccc(C)cc2)nc2ccccc21 | -14 | 3% | -22 | 0.8 | 9
O=C(NCc1ccco1)c1ccc(N2CCCC2=O)cc1 | 8 | -5% | -12 | 1.2 | -2
CN(CC(=O)Nc1ccc(F)c(F)c1)S(=O)(=O)c1cccc2nsnc12 | 0 | -17% | -39 | 1.3 | ?
O=C(/C=C/c1ccccc1[N+](=O)[O-])N1CCN(C(=O)c2ccco2)CC1 | 0 | 2% | / | -2.5 | -16
Cn1cc2cc(NC(N)=S)ccc2n1 | 2 | -1% | / | -1.4 | -4
CCOC(=O)c1cnc2c(C)c(Cl)ccc2c1N1CCN(CC)CC1 | / | / | / | 3.6 | -9
O=C(c1cc2ccccc2oc1=O)N(Cc1ccccc1)CC1CCCO1 (centres undefined) | 3 | -7% | -30 | -0.2 | -11
Cc1ccccc1CCNC(=O)C1CCCN(c2cnccn2)C1 (centres undefined) | / | / | / | 3.9 | -1

A portion of the results above, as a working copy:
SMILES | Arbovirus anti | Mtb H37Rv | YopH inh | RecA intein inh | Mtb bLac sens | others
COc1ccc(-c2nc(SCC(=O)Nc3cc(C)on3)n[nH]2)cc1 | 13 | 11% | 1 | -0.7 | 4
O=C(CCl)c1ccc(Cc2ncc(C(F)(F)F)cc2Cl)s1 | -5 | 2% | -1 | 79* | 93
COc1cc(C(C)=O)ccc1OC(=O)CN1C(=O)c2ccccc2C1=O | / | / | / | 3.3 | 3
C/C(=N\NC(=O)COc1ccc(C)cc1[N+](=O)[O-])c1ccc2c(c1)OCCO2 | / | / | / | 1.1 | -2
CCCn1c(NCc2ccccc2NS(=O)(=O)c2ccc(C)cc2)nc2ccccc21 | -14 | 3% | -22 | 0.8 | 9
O=C(NCc1ccco1)c1ccc(N2CCCC2=O)cc1 | 8 | -5% | -12 | 1.2 | -2

Additional entries
SMILES | Arbovirus anti | Mtb H37Rv | YopH inh | RecA intein inh | Mtb bLac sens | others
CN1CCN(c2ccccc2NS(=O)(=O)c2ccc3c(c2)CCN3C(=O)C2CCC2)CC1 | / | -7% | -103 | -3.7 | -4
Cc1ccc(CNC(=O)CN2C(=O)C3(OCCCO3)c3ccccc32)cc1 | 1 | -3% | -22 | -2.1 | 6
O=C(CO/N=C/c1ccccc1)Nc1c(F)c(F)c(F)c(F)c1F | 18 | 1% | / | 0.0 | 5
CCCCC(=O)Nc1ccc(C(=O)NCCc2ccccc2)cc1 | -5 | 12% | -21 | 3.6 | 9
Cc1ccccc1C(=O)Nc1nnc(CC(=O)N/N=C/c2cn(Cc3ccccc3)c3ccccc23)s1 | / | 6% | / | -0.6 | 10
COc1cccc(NC(=O)CSc2nnc(-c3cccc(OC(C)C)c3)n2N)c1 | -4 | -3% | -27 | -0.4 | -3
COc1ccc(COC(=O)c2cccc(S(=O)(=O)N3CCCC3)c2)cc1F | / | / | / | 4.1 | 3
Cc1nnsc1S(=O)(=O)c1ccccc1 | / | / | / | -0.7 | -1
CN(CC(=O)NCc1ccccc1F)S(=O)(=O)c1ccc(Cl)cc1 | / | / | / | -2.5 | 2
CCN(CC)CCCn1c(C)cc2c(c1=O)C(c1ccccc1)C(C#N)=C(N)O2 (centres undefined) | -3 | -3% | -40 | -0.1 | 1
CC(=O)c1c(C)[nH]c(C(=O)CSc2nc3ccccc3n2C)c1C | -2 | -3% | -41 | -1.4 | -13
S=C(NNc1ccnc2cc(Cl)ccc12)Nc1ccccc1Cl | -18 | ? | -16 | 28 | 87
C[C@]12C=CC(=O)C=C1C=C[C@@H]1C2CC[C@]2(C)C(=O)CCC12 (some centres undefined) | / | / | / | 2.0 | -2
Nc1nc(CN2CCN(c3ccccc3)CC2)nc(N2CCCc3ccccc32)n1 | 5 | 6% | -21 | 4.6 | 92
O=C(NCCCn1ccnc1)Nc1ccc2c(c1)OCO2 | / | / | / | 0.1 | -5
CN1C(=O)SC(Nc2cccc3ccccc23)C1=O (centres undefined) | -10 | 60% | -34 | -1.8 | 73
COc1ccc(NC(=O)C2CCCN2C(=O)Nc2cccc(F)c2)cc1 (centres undefined) | 0 | -6% | / | 0.6 | -12
Cc1nc2c(C(=O)NCCc3ccccc3Cl)c[nH]n2c(=O)c1Cl | 60* | -11% | -15 | -1.8 | -2
CCOC(=O)c1c(-c2ccc(C)o2)csc1NC(=O)CN(C)CC(=O)Nc1ccc(C)cc1 | -16 | -2% | -18 | 0.6 | 4
Cn1c(=O)c2cn(-c3ccccc3)cc2n(C)c1=O | 4 | -9% | -2 | 5.9 | -5
COc1ccc(-c2nc3n(c(=O)c2C#N)CCS3)cc1 | -3 | 2% | / | -1.9 | -4
COC(=O)Sc1nc(N2CCOCC2)c2c(c1C#N)CC(C)(C)OC2 | 9 | 2% | -20 | 3.3 | -11
CCOc1ccccc1N1CCN(C(=O)c2c(C)noc2C)CC1 | -1 | -4% | 17 | 1.8 | -3
COc1ccccc1CN1CCNC(=O)C1CC(=O)NCCc1cnccn1 (centres undefined) | 3 | -3% | / | -1.5 | -7
CCOCCCN(C)C1CCN(C(=O)c2oc3ccccc3c2NC(=O)COc2ccc(F)cc2)CC1 | / | / | / | 3.3 | 0
O=C1c2cccc3c(N4CCCCC4)ccc(c23)C(=O)N1c1ccccn1 | 21 | 5% | -38 | -16 | /
COc1cc(OC)c(-c2nc3ccccc3s2)cc1OC | -18 | -3% | / | -1.3 | 83
CCCc1cc(C(=O)Nc2cc(Br)ccc2O)no1 | 35* | 78% | -15 | 0.4 | -3 | Arbovirus anti repeat=12*
CC1Cc2cc(/C(O)=C3/C(=O)C(=O)N(Cc4ccncc4)C3c3ccc(N(C)C)cc3)ccc2O1 (centres undefined) | / | / | / | -2.7 | -2
